A1 inh: caspase 3/7 activation in MEF A1-2A-BIM cells, primary screen, A1 inhibitor project, cell-based, luminescence, HTS | Caspase-Glo 3/7 luminescence, 3 h; percent of clofoctol response, vehicle zero | caspase activation, % (test concentration not listed) | 330,000 tested, 0.066% active;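 active means over half of replicate activation scores above 10%, or exactly half above 10 with the replicate mean above 10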;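 further: wells of about 30 µL received 50 nL stock; many hits fall short of the cut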
E coli growth: E. coli growth inhibition, primary screen, OD600. OD600 absorbance (concentration not given with the values). Escherichia coli growth, 23 h; stronger effect = lower value. AID 1053175, 2014. 330,000 tested, 0.21% active;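 active means OD600 absorbance below the run mean of sample wells minus 3.6 SD, in any replicate, cut at about 0.56 in these data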;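 further: stock transfer was 300 nL into about 60 µL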
Ecoli rRNA inh: reduced GFP signal of wild-type E. coli, primary screen, bacterial rRNA inhibitor project, GFP/RFP fluorescence, OD600, single point | E. coli WT GFP vs humanized-ribosome RFP mutants, 24 h; stronger effect = lower value; DMSO median 0, no signal -100 | GFP signal change (wild-type ribosome), % (concentration not given with the values) | 350,000 tested, 1.6% active | AID 720706, 2013;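 active means significant combined selectivity score with lowered wild-type GFP, culture density cut under 30%, mutant RFP and density less affected; inactive means any of these conditions unmet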; further: one replicate is shown; some compounds called inactive have numbers as strong as hits
Beta apoptosis: inhibitors of cytokine-induced beta cell apoptosis, primary screen, luminescence | INS-1E cytokine-induced death, ATP luminescence, 48 h; percent of positive-control rescue, neutral wells zero | protection from apoptosis, % (concentration not given with the values) | 300,000 tested, 0.8% active | AID 435005, 2010;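 active means all replicates at 75% or more, or half of them and the mean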;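 further: 0% = cytokine-treated negative control wells and 100% = positive control rescue; higher means more ATP so stronger rescue from cytokine killing; wells of about 40 µL received 100 nL stock; the first replicate is given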
UCH37 DUB inh: inhibitors of human UCH37 deubiquitinase, primary screen, biochemical, Ub-AMC cleavage, fluorescence; Ubiquitin carboxyl-terminal hydrolase isozyme L5 (Homo sapiens), Q9Y5K5; purified proteasome/UCH37; inhibition, % (no concentration beside the values); 330,000 tested, 0.33% active;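 active means mean of two replicates above 20%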;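 further: 0% = compound-free wells with enzyme and 100% = wells lacking proteasome; stock transfer was 100 nL into about 20 µL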
Target sequence (Q9Y5K5 whole entry, looked up): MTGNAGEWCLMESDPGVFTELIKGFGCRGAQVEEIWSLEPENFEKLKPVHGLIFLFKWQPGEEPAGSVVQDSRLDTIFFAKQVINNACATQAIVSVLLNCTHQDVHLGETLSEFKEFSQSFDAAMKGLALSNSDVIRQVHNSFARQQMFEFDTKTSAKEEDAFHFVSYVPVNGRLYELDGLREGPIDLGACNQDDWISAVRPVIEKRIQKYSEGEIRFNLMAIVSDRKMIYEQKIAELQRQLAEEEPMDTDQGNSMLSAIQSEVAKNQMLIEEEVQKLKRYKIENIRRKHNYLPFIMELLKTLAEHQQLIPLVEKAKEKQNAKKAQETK
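Reagent: Ub-AMC substrate; assay system: Proteasome-associated human UCH37 deubiquitinase; controls: no-proteasome and no-compound wells; read-out: % inhibition of Ub-AMC cleavage fluorescence; timing: 30 min preincubation with enzyme, 25 min cleavage at room temperature; signal: AMC fluorescence from Ub-AMC cleavage, excitation 355 nm, emission 460 nm; buffer or medium: Tris-HCl pH 7.4 plus ovalbumin, ATP-MgCl2, DTT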
FGF22 binding: binders of human FGF22 protein, primary screen, FGF22 synaptogenesis inhibitor project, biophysical, thermal shift, single point; AID 651658, 2012; Fibroblast growth factor 22 (Homo sapiens), Q9HCT0; 340,000 tested, 1.5% active; calls only at 9.99 µM; recombinant FGF22 thermal shift, SYPRO orange fluorescence; percent of sucrose octasulfate shift, DMSO zero;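 active means melting point raised past a set limit in the mean and every replicate; three in four hits are not shown here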
Target sequence (Q9HCT0 whole entry, looked up): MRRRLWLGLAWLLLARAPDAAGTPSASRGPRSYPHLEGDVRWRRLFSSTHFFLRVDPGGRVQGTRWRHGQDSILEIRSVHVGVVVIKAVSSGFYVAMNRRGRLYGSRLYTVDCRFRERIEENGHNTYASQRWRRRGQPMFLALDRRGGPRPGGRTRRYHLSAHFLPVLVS
T cruzi inh: inhibitors of intracellular T. cruzi growth, primary screen, luminescence, NIH3T3 host cells | inhibition, % (concentration not given with the values) | T. cruzi beta-gal in NIH3T3, 90 h | 300,000 tested, 1.4% active;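 active means mean inhibition across valid replicates above about 55%, limit read from the data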;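 further: signal also drops with host cell toxicity which is not excluded here; 0% = plate median of DMSO wells and 100% = zero luminescence signal; higher percent means less beta-gal luminescence so fewer parasites; stock transfer was 50 nL into about 50 µL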
MLL AF4-AF9 inh: inhibitors of AF4 peptide binding to AF9, primary screen, biochemical, AlphaScreen, biotin-AF4 peptide, FLAG-AF9, single point; Protein AF-9 (Homo sapiens), P42568; inhibition, % at 10 µM; 350,000 tested, 0.47% active; AID 651704, 2012;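 active means every replicate reaching a set inhibition limit, whatever the replicate mean, cut at about 25% in these data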;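 further: 0% = plate neutral control median and 100% = total signal loss; the record names both 10 and 1 µM as test concentration; the first replicate is given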
Target sequence (P42568 whole entry, looked up): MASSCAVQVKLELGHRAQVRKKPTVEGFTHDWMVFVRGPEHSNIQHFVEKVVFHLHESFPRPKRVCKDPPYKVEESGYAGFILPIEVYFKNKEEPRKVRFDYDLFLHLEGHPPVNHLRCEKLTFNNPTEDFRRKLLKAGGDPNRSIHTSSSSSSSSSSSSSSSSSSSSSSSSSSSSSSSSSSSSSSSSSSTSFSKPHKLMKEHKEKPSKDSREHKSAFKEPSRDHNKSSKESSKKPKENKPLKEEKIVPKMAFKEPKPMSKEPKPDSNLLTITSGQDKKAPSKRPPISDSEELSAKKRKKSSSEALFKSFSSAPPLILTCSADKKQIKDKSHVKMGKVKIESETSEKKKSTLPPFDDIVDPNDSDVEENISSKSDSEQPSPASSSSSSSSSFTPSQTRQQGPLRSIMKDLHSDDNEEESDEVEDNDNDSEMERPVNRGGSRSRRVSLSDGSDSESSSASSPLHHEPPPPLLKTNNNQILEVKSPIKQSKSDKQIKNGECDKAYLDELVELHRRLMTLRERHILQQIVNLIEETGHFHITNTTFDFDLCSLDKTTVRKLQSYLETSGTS
Ecoli rRNA inh OD600: also measured in Ecoli rRNA inh; calls as there; OD600 change, %; measured here: OD600 growth;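 optical density of the mix in the first replicate; 0 = DMSO median and -100 = no signal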
Ecoli rRNA inh RFP: also measured in Ecoli rRNA inh; calls as there; RFP signal change, %; measured here: RFP humanized mutant strains;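 first replicate; 0 = DMSO median and -100 = no signal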
Numbers without * were called inactive; i = inactive; · = no result given. These rows are one share of the data; rates above refer to the full screens.

SMILES	A1 inh	E coli growth	Ecoli rRNA inh	Ecoli rRNA inh OD600	Ecoli rRNA inh RFP	Beta apoptosis	UCH37 DUB inh	FGF22 binding	T cruzi inh	MLL AF4-AF9 inh
O=C1CCCN2N=C(SCC(=O)Nc3ccc(OC(F)(F)F)cc3)SC2=N1	-0.3	0.69	-2	2	-2.1	-3	1.5	i	0	-1.3
COC(=O)N/N=C/c1c(C)nn(-c2cccc(Cl)c2)c1Cl	0.5	·	3	4	-1.5	-1	·	i	-2	-2.5
CSc1ccc(/C=C2\CCn3c2nc2cc(C(=O)O)ccc2c3=O)cc1	2.3	0.66	10	3	-5.7	-1	-43	i	-8	1.6
O=C(CN1CCCc2ccccc21)NCCc1ccc(Cl)cc1	-0.3	0.7	-31	-60	0.0	-2	6.9	i	13	4.9
COc1cccc(-c2ncc3ccccc3c2COC(=O)c2ccc(F)cc2)c1	1.3	0.65	-8	-30	-2.2	2	1.6	i	·	·
COc1ccc(C(=O)OCC(=O)NC(=O)NC(C)C)cc1OC	0.3	0.65	7	14	-5.3	3	4.4	i	-19	-3.3
COC(=O)N(NC(=O)C(O)(c1ccccc1)c1ccccc1)c1ccccc1	0.3	0.74	18	12	-1.4	-5	1.4	i	-3	-5.1
CCn1c(-c2csc(-c3ccccc3)n2)n[nH]c1=S	-0.6	0.75	·	·	·	-10	1.6	·	-6	·
COC(=O)CC1C(=O)NCCN1C(=O)c1sc2ccccc2c1Cl (centres undefined)	1.3	0.65	3	3	0.0	-3	1.4	i	8	-0.8
O=C(O)c1ccc(Cl)c(NC(=S)NC(=O)c2cccc(COc3ccccc3)c2)c1	-2.2	·	-4	2	2.0	-7	·	i	12	-1.2
Cc1c(NC(=O)C(C)OC(=O)CCc2ccccc2)c(=O)n(-c2ccccc2)n1C (centres undefined)	1.0	0.69	9	7	-1.4	1	1.5	i	-1	-1.4
CC(C)c1ccc(CNc2ncccn2)cc1	-0.2	0.6	6	1	0.0	-6	-0.1	i	-8	-18
O=C(CN1CCCCCCC1)Nc1ccc(Cl)cc1Cl	0.6	0.63	-53	-74	-20	9	1.5	i	0	0.3
CCN(Cc1ccccc1)C(=O)COC(=O)c1cc(S(=O)(=O)Nc2c(C)n(C)n(-c3ccccc3)c2=O)ccc1C	0.3	0.62	-20	-30	-2.0	-1	-0.3	i	6	0.1
COc1cc(NC(=O)c2onc(C)c2Cl)cc(OC)c1OC	0.1	0.66	5	-2	3.7	3	4.3	i	-12	0.1
CC(=O)Nc1ccc(N=NN2CCOCC2)cc1	-0.8	0.67	19	10	-2.0	7	5.7	i	13	-1.1
COc1ccc(C2=NOC(CNC(=S)N3CCOCC3)C2)cc1 (centres undefined)	0.2	0.68	8	-5	2.7	2	1.0	i	-21	-1.2
CC(=O)/C=C/c1ccc(C)o1	0.1	0.68	9	-4	-1.1	0	4.1	i	-19	-9.5
CCC1(C)N=C(c2ccc3c(c2)OCO3)CC(c2ccccc2O)N1 (centres undefined)	-1.5	0.66	-7	-9	2.0	3	3.7	i	-12	-56
CCc1cc(=O)oc2cc(C)cc(OCc3nn[nH]n3)c12	0.3	0.78	·	·	·	-2	-221	·	-9	·
COC(=O)c1cc(OC)c(OC)cc1NC(=O)CSc1nnnn1Cc1ccccc1	-1.3	0.69	·	·	·	-5	1.1	·	5	·
CC(C)CNC1=C(C(=S)Nc2ccccc2)C(=O)CC(C)(C)C1	-0.1	0.71	·	·	·	-1	0.7	i	27	2.5
COCCN(C(=O)c1snc(C(N)=O)c1N)C(C(=O)NC1CCCCC1)c1ccc(OC)c(OC)c1 (centres undefined)	-0.6	0.62	-5	2	-2.8	-4	-30	i	-6	-5.0
O=C1C(Cl)=C(N2CCCCC2)C(=O)N1c1ccccc1Cl	-0.4	0.69	·	·	·	-5	4.9	·	9	·
O=C1SCCC1NS(=O)(=O)c1ccccc1[N+](=O)[O-] (centres undefined)	0.0	0.71	10	6	-0.3	-13	-2.4	·	-10	-4.1
Additional records follow:
SMILES	A1 inh	E coli growth	Ecoli rRNA inh	Ecoli rRNA inh OD600	Ecoli rRNA inh RFP	Beta apoptosis	UCH37 DUB inh	FGF22 binding	T cruzi inh	MLL AF4-AF9 inh
CCCCn1c(N)c(N(CCOC)C(=O)CC(NC(=O)c2ccccc2Cl)c2ccccc2)c(=O)[nH]c1=O (centres undefined)	·	0.69	4	16	-2.9	·	-2.8	i	·	-3.4
CCOc1ccc(CN2CCN(Cc3cn(CC)nc3C)CC2CCO)cc1 (centres undefined)	0.2	0.69	15	16	1.1	0	0.8	i	17	-0.9
Cn1c(N)c(C(=O)COC(=O)c2cnc(Cl)c(Cl)c2)c(=O)n(C)c1=O	1.0	0.69	4	8	1.4	-4	4.7	i	-10	1.2
CCC(=O)Nc1nc2ccc3sc(C)nc3c2s1	-3.4	0.69	1	13	0.7	11	6.3	i	14	-1.4
Cc1ccccc1OCCC(=O)Nc1ccc(N2CCOCC2)cc1N1CCOCC1	0.6	0.7	2	1	1.0	1	1.9	i	-1	2.9
Nc1c(N(CCC2=CCCCC2)C(=O)CCCOc2ccccc2)c(=O)[nH]c(=O)n1Cc1ccccc1	1.1	0.67	0	1	0.6	-9	-0.2	i	16	-27
COc1ccccc1NC(=O)N1c2ccc(F)cc2CCC1C (centres undefined)	-0.1	0.7	·	·	·	-6	2.6	·	-13	·
Cc1cccc(NC(=O)C(C)SCc2nc3sc4c(c3c(=O)[nH]2)CCCC4)n1 (centres undefined)	-1.2	0.63	4	-6	0.1	2	-37	i	4	-3.1
O=C(Nc1ccc(Oc2ncccn2)cc1)c1ccco1	-1.8	0.66	·	·	·	-3	3.1	·	-12	·
CCCCOC(=O)c1ccc(NC(=O)c2ccoc2C)cc1	-7.2	0.7	·	·	·	16	2.8	·	-3	·
Cc1nc2ccc(NC(=S)N3CCN(c4ccccn4)CC3)cc2nc1C	0.0	0.68	-18	-16	-4.9	-2	2.1	i	1	-1.5
Cc1c(Cl)cccc1NC(=O)CS(=O)(=O)c1ccccc1	-1.3	0.67	3	7	3.4	0	3.7	i	-9	-3.0
Cc1ccc(NC(=O)CCC(=O)N/N=C/C=C/c2ccccc2)cc1	-0.7	·	12	8	-1.5	2	·	i	5	-0.1
COc1ccc(CNC(=O)C2CCN(S(=O)(=O)c3ccc(SC)cc3)CC2)cc1	0.4	0.66	5	2	-1.1	1	4.8	i	-8	1.1
O=C(CSc1nnc2ccccn12)Nc1ccc2c(c1)OCCO2	-0.3	0.67	9	17	4.8	0	0.9	i	4	-0.6
CCOc1ccccc1-n1c(SCC(=O)N(CC)CC)nnc1-c1ccccn1	1.9	0.72	·	·	·	-4	0.6	·	1	·
COc1cc(O)c2c(=O)c3c(OC)c(O)ccc3oc2c1	0.9	0.7	-12	-8	-4.0	6	0.5	i	1	0.5
CCCc1cc(=O)[nH]c(SCCc2ccccc2)n1	0.2	0.67	-26	-33	-4.3	-2	-0.2	i	-2	-1.4
O=C(CC1CCCC1)NNC(=O)c1ccc(F)cc1	1.1	0.71	11	7	1.1	-2	6.5	·	-14	-1.1
Nc1nn2cc(-c3ccccc3)nc2c2ccccc12	-8.6	0.63	-41*	17*	-12*	6	i	i	37	1.4
N#C/C(=C\c1ccc([N+](=O)[O-])cc1)C(=O)Nc1ccccc1O	0.2	0.67	2	6	0.2	-21	2.2	i	-12	6.1
O=C(O)COc1ccc2c(c1)O/C(=C\c1ccco1)C2=O	-1.0	0.63	19	19	11	1	-14	i	-8	-0.4
CC1CCCCN1CCCNC(=O)c1c(O)nc2ccccn2c1=O (centres undefined)	0.1	0.7	6	13	-1.0	2	-38	i	-8	0.1
Cc1sc2nc(COC(=O)c3cccc(OC(F)F)c3)[nH]c(=O)c2c1C	0.4	0.66	2	-3	-7.2	1	-0.2	i	-2	-51
COc1ccc(CCC(=O)NNC(=O)Nc2ccc(C(C)=O)cc2)cc1	1.3	0.65	0	3	1.3	0	2.2	i	-21	0.1
(more compounds)
SMILES	A1 inh	E coli growth	Ecoli rRNA inh	Ecoli rRNA inh OD600	Ecoli rRNA inh RFP	Beta apoptosis	UCH37 DUB inh	FGF22 binding	T cruzi inh	MLL AF4-AF9 inh
Cc1ccc(Cl)cc1NS(=O)(=O)c1cn(C)nc1C	0.6	0.7	14	15	-2.0	·	0.4	i	-1	-0.5
CCOc1ccc(N2C(=O)CC(/C=C3/N(C)c4ccccc4C3(C)C)C2=O)cc1 (centres undefined)	0.2	0.68	-7	-1	18	1	2.6	i	-19	11
CCCC(C(=O)Nc1ccc(C)c(S(=O)(=O)N2CCOCC2)c1)c1ccccc1 (centres undefined)	0.5	0.7	-7	-19	1.9	4	1.3	i	16	1.0
CC(C)C[C@H](NC(=O)N1CC(=O)Nc2ccccc21)C(=O)N1CCC(C(=O)O)CC1	0.0	0.66	3	-3	0.8	-1	-1.5	i	4	1.5
CC(C)C1Nc2c(O)cc(Cl)c([N+](=O)[O-])c2C2C=CCC21 (centres undefined)	·	0.66	-55	-74	-4.7	·	4.8	i	-7	2.0
O=C(CCC(=O)c1cccs1)NNC(=O)c1cc(Cl)ccc1Cl	0.4	0.67	7	2	0.2	0	-2.5	i	·	-3.3
Cc1cn(C)c(=O)n(C)c1=O	0.3	0.7	·	·	·	-4	3.7	i	10	-2.6
Cn1c(-c2ccco2)n[nH]c1=S	1.6	0.75	8	8	-5.9	1	-2.5	i	-6	-4.0
O=C(O)c1ccccc1-c1ccccc1C(=O)NCCCO	0.4	0.66	·	·	·	-5	2.9	·	-3	·
COc1cccc(Nc2nc(-c3sc(NC(=O)CC(C)C)nc3C)cs2)c1	-0.1	0.7	-2	12	-2.9	0	-6.4	i	-11	6.6
Cc1ccc(SCc2cc(=O)[nH]c(N3CCN(Cc4ccccc4)CC3)n2)cc1	1.0	0.82	·	·	·	2	-1.4	·	21	·
CCC1(CC)NC(=O)N(CC(=O)OCC(=O)c2ccccc2OC)C1=O	0.3	0.66	2	4	-3.4	-6	-1.0	i	-3	-0.7

Part of the list above, showing only T cruzi inh, Beta apoptosis and Ecoli rRNA inh.
Compound | T cruzi inh | Beta apoptosis | Ecoli rRNA inh
Cc1ccc(SCc2cc(=O)[nH]c(N3CCN(Cc4ccccc4)CC3)n2)cc1 | 21 | 2 | ·
Cc1cn(C)c(=O)n(C)c1=O | 10 | -4 | ·
CC(C)C[C@H](NC(=O)N1CC(=O)Nc2ccccc21)C(=O)N1CCC(C(=O)O)CC1 | 4 | -1 | 3
O=C(CCC(=O)c1cccs1)NNC(=O)c1cc(Cl)ccc1Cl | · | 0 | 7

Source: PubChem BioAssay (several laboratories)
